Screening results as filed in PubChem BioAssay.
eIF4H inh: inhibitors of RNA binding by human eIF4H. inhibition, % at 35 µM. 290,000 tested, 0.94% active. eIF4H fluorescence polarization binding assay. Q15056. AID 2012;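 active = 50% or more with normal probe brightness, or confirmed in later tests; inconclusive = above 50% with abnormal brightness, or retests that disagree; inactive = below 50% or failed in later tests; about a fifth of its hits are not listed in these tables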;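 also: calls also rest on retests at 20 µM and on dose response follow-up; 0% = protein and probe with vehicle and 100% = probe without protein; strong numbers were not always called active; many hits fall short of the cut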
HIV Env fusion: HIV envelope-mediated fusion inhibition; HeLa-JRFL Env/CEM21 cell fusion, luciferase; inhibition, % at 12.3 µM; 360,000 tested, 1.1% active; AID 651610;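 active = mean replicate inhibition score of at least 50 and every replicate individually at or above 50; inconclusive = only one of the two criteria met; inactive = mean below 50 and not all replicates reaching 50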;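 also: 0% = plate neutral controls and 100% = maraviroc near 300 nM; one replicate is shown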
MT1-MMP act inh: MT1-MMP (human) activation inhibition; P50281; HT1080 RFP-PRO-GFP cells, GFP/RFP ratio fluorescence, overnight; percent of plate control window, DMSO zero; GFP/RFP ratio change, % at 20 µM; 360,000 tested, 0.061% active; AID 651647;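 active = GFP/RFP ratio change of at least 30% with cell ATP level not reduced by more than half and red fluorescence within 50% of control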; also: strong numbers were not always called active
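Material: RFP-PRO-GFP reporter HT1080 cells. Dosing: single-point 20 µM compound, 1% DMSO. Controls: DMSO and RFP-L50D-GFP cell wells. Timing: cells overnight before dosing, compound overnight, 37 °C, 5% CO2. Measure: GFP/RFP fluorescence ratio.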
PABP polyA inh: PABP-poly(A) binding inhibition; P11940; PABP-poly(A) RNA binding, fluorescence polarization; inhibition, % at 35 µM; 290,000 tested, 1% active; AID 2014;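 active = 50% or more with normal probe brightness, or confirmed in later tests; inconclusive = above 50% with abnormal brightness, or retests that disagree; inactive = below 50% or failed in later tests; about a fifth of its hits are not listed in these tables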;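 also: calls also rest on retests at 20 µM and on dose response follow-up; controls were probe without protein and protein plus probe with vehicle; some compounds called inactive have numbers as strong as hits; many hits fall short of the cut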
Target sequence (P11940 whole entry, looked up): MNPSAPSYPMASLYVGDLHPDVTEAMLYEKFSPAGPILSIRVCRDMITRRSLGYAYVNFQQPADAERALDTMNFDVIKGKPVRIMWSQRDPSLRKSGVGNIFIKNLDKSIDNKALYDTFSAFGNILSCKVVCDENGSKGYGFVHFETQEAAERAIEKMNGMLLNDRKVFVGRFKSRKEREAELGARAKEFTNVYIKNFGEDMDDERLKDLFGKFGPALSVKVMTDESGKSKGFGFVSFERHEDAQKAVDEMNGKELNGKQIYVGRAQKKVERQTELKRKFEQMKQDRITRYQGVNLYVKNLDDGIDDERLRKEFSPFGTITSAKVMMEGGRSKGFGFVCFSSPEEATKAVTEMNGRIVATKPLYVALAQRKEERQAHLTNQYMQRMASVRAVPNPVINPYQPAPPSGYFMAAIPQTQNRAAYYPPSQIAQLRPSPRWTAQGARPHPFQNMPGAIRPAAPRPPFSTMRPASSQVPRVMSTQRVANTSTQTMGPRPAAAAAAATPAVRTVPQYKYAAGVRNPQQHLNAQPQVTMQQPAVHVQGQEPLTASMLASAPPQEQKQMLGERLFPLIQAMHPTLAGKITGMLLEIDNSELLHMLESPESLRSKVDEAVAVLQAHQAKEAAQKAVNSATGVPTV
Rce1 inhib: blocks yeast Ras-converting enzyme. Q03530. yeast membranes, quenched prenylated peptide cleavage fluorescence. calls only. 290,000 tested, 0.27% active. AID 2563;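 active = fall in fluorescence gain of 50% or more versus controls, with final raw signal at or below 3038400; inconclusive = same 50% fall but final raw signal above 3038400; inactive = fall in fluorescence gain under 50%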;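 also: plate controls were neutral control wells for no effect and wells lacking membranes for full effect; tested at 10 µM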
CSC inhib: cancer stem cell inhibition. cancer stem cell-like cells viability, luminescence. inhibition, % at 7.5 µM. 300,000 tested, 1.1% active. AID 2717;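 active = mean at 75% or more and at least half the replicates too; inconclusive = mean and replicates disagree; tested in HMLE shEcad cells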;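 also: 0% = median of negative and 100% = median of positive control wells; the first replicate is given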
Yeast UUG start: yeast start codon fidelity modulation. S. cerevisiae UUG-firefly luciferase reporter, luminescence/redox ratio. activity score, % at 18.7 µM. 350,000 tested, 0.13% active. AID 602363;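 active = replicate mean at a twofold rise or more, about +100% in these data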;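 also: firefly luciferase made from a UUG start codon reports start codon fidelity; reporter light over untreated wells divided by growth signal over untreated wells; some hits fall short of that in this replicate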
eIF4H inh retest: recorded beside eIF4H inh, whose call it bears; inhibition, %; compound at 20 µM; confirmation average;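 mean of two retest wells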
PABP polyA inh retest: further read-out of PABP polyA inh, marked with its call; inhibition, %; compound at 20 µM; confirmation repeats;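 mean of two retest wells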
MT1-MMP act inh RFP: recorded beside MT1-MMP act inh, whose call it bears; RFP signal change, %; measured here: RFP expression control read;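 0 = vehicle wells; hits needed this value within 50% of zero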
An asterisk follows results filed as active; i = inactive; ? = inconclusive; . = no result given.

SMILES	eIF4H inh	HIV Env fusion	MT1-MMP act inh	MT1-MMP act inh RFP	PABP polyA inh	Rce1 inhib	CSC inhib	Yeast UUG start	others
O=C(c1ccc(-n2cncn2)c([N+](=O)[O-])c1)N1CCN(S(=O)(=O)c2ccc(Br)cc2)CC1	.	11	4	-3	.	.	31	-1
Cc1nc2nc(COc3ccccc3)[nH]n2c(=O)c1Cc1ccccc1	1	-32	9	1	0	i	.	14
COc1ccc(-c2nc(CN(Cc3cnn(C)c3)C(C)C)c(C)o2)c(OC)c1	0	12	4	4	-5	i	-9	.
Cc1cccc2nc(CSc3ccccc3N)cn12	.	.	0	1	.	i	-2	.
CCOC(=O)C(CC)/C(C)=N\NC(=O)c1ccccc1O (stereo not drawn)	-4	44	-9	-8	5	i	41	.
NC(=O)c1ccc(NC(=O)CSc2nnc(-c3ccc4c(c3)OCO4)o2)cc1	.	0	4	4	.	.	-9	-23
CCOc1cc(/C=N/N=C2/NC(=O)C(CC(=O)O)S2)ccc1OCc1ccc(Cl)cc1 (stereo not drawn)	32	3	0	-1	8	i	-3	.
CCN(CC(=O)NCc1ccncc1)S(=O)(=O)c1ccc(OC)cc1	-5	6	-3	-2	-3	i	-16	-4
O=C(c1cc(COc2ccc(F)cc2Cl)on1)N1CCSCC1	11	-61	0	-4	-1	i	-2	-13
CC(=O)NC(CC(=O)OCC(=O)N1CCN(S(=O)(=O)c2ccc(Cl)cc2)CC1)c1ccccc1 (stereo not drawn)	.	9	3	3	.	i	-2	.
Cc1ccc2cc(CNC[C@H]3O[C@@H](n4cc(C)c(=O)[nH]c4=O)C[C@@H]3O)c(N3CCOCC3)nc2c1	.	33	-5	0	.	.	.	-8
O=C(c1ccco1)N1N=C(c2ccc(Cl)cc2)CC1(O)C(F)(F)F (stereo not drawn)	-6	32	4	2	51	i	5	.	eIF4H inh retest=-2;PABP polyA inh retest=23
CCOC(=O)C1CCN(C(=O)c2cccs2)CC1	-2	-3	0	4	0	i	-1	.
Cc1ccc2oc(C(=O)NC3CCS(=O)(=O)C3)cc(=O)c2c1 (stereo not drawn)	.	-1	-1	0	.	i	8	-3
Cn1c(SCC(=O)N2CCOCC2)nc2cccnc21	5	.	-4	2	-3	i	-24	6
CCOC(=O)Cc1nnc(Nc2cccc(O)c2)c2ccccc12	-5	.	1	1	-4	i	6	.
COc1ccccc1N1CCN(C(=O)Cn2nnc(-c3cccs3)n2)CC1	-3	-19	6	-1	-10	i	4	-20
CC1=NN(C(=O)Cn2nc([N+](=O)[O-])cc2C)C(O)(C(F)(F)F)C1 (stereo not drawn)	-6	-2	0	2	-11	i	-11	.
Cc1c(NC(=O)CSCc2ccccc2)cccc1C(=O)O	-3	-46	1	4	4	i	5	-7
COCCNC(=O)CSc1ccccc1C(=O)NCC1CCCCC1	3	-15	0	1	0	i	-13	.
CCCCCCCCCC(=O)Nn1cnc2ccccc2c1=O	-5	19	-6	-2	10	i	-13	.
Cc1cc(C)n(-c2nc3ccccc3c(=O)n2OCC(=O)Nc2c(C)cccc2C)n1	2	.	9	5	-8	i	-1	-13
COc1ccc(C(=O)Nc2cccc(N(C)S(C)(=O)=O)c2)cc1OC	-5	.	-4	-2	-7	i	-3	0
COc1ccc(/C=C/c2nnc(NC(=O)C(C)C)s2)cc1	-12	-15	0	0	-2	i	-1	-13
CCOc1ccccc1CNC(=O)CCNS(=O)(=O)c1ccc2[nH]c(=O)oc2c1	16	-1	2	5	2	i	-11	-11
Cc1c(Cl)cccc1N1C(=O)CC(N(O)c2ccccc2)C1=O (stereo not drawn)	7	12	5	5	15	i	-7	-8
O=C(COC(=O)c1cn(-c2ccccc2)nc1-c1ccc(F)cc1)Nc1ncc(Cl)cc1Cl	-12	-11	-10	-3	3	i	-1	.
CCOC(=O)N1CCN(C(=O)CS(=O)(=O)c2cn(Cc3ccc(Cl)cc3)c3ccccc23)CC1	-7	17	0	-15	-4	i	-6	-11
COc1cccc(CN(C)C(=O)C2CCN(S(=O)(=O)c3ccc(C)cc3)CC2)c1OC	.	.	-1	-3	.	.	-11	-13
COc1ccc(CCNC(=O)NS(=O)(=O)c2ccc(C)cc2)cc1OC	-14	-6	-5	-1	2	i	-5	22
CN(Cc1ccco1)C(=O)c1ccc(OC2CCN(Cc3ccccn3)CC2)cc1	-7	-13	-2	6	-3	i	0	-23
CN(C1CCCCC1)S(=O)(=O)c1ccc(S(=O)(=O)N2CCN(C(=O)c3ccccc3F)CC2)cc1	-12	-67	-2	-10	-5	i	20	-11
CCCC(c1nnnn1CCc1ccccc1)N1CCC(C(N)=O)CC1 (stereo not drawn)	-6	14	3	12	-1	i	-17	.
Nc1ccc(-c2cnc(-c3ccc(N)cc3)nc2)cc1	4	i	3	1	2	i	31	-33
O=C(O)CC(c1ccccc1)N1C(=O)c2ccccc2C1=O (stereo not drawn)	.	-6	-6	-2	.	i	-24	.
COc1ccc(Cc2n[nH]c(=S)n2-c2ccc3c(c2)OCCO3)cc1	-12	-1	-2	6	7	i	20	.

Three structures already listed, sorted by heavy-atom count, rising:
SMILES	eIF4H inh	HIV Env fusion	MT1-MMP act inh	MT1-MMP act inh RFP	PABP polyA inh	Rce1 inhib	CSC inhib	Yeast UUG start	others
COc1ccccc1N1CCN(C(=O)Cn2nnc(-c3cccs3)n2)CC1	-3	-19	6	-1	-10	i	4	-20
O=C(c1ccc(-n2cncn2)c([N+](=O)[O-])c1)N1CCN(S(=O)(=O)c2ccc(Br)cc2)CC1	.	11	4	-3	.	.	31	-1
O=C(COC(=O)c1cn(-c2ccccc2)nc1-c1ccc(F)cc1)Nc1ncc(Cl)cc1Cl	-12	-11	-10	-3	3	i	-1	.

Other results
SMILES	eIF4H inh	HIV Env fusion	MT1-MMP act inh	MT1-MMP act inh RFP	PABP polyA inh	Rce1 inhib	CSC inhib	Yeast UUG start	others
O=C1c2cccc3cccc(c23)C(=O)C1(O)O	.	-53	5	0	.	i	11	-15
COc1ccc(Nc2cc3n(c(=O)n2)CCc2cc(OC)c(OC)cc2-3)cc1	-2	7	7	6	11	i	16	-9
COC(=O)CN1C(=O)CC(C)(C)Sc2ccccc21	-1	-20	1	8	4	i	4	-7
COc1ccc(OCc2nnc(SCC(N)=O)n2N)cc1	2	.	1	3	-18	i	-4	-18
O=[N+]([O-])c1ccc(Oc2ccc(C(F)(F)F)cn2)cc1	0	5	0	1	4	i	9	.
Cc1ccc(NC(=O)C(=O)NCCc2c[nH]c3ccccc23)cc1C	-10	-19	3	0	-3	i	28	.
O=C(CN1C(=O)NC2(CCOc3ccccc32)C1=O)c1ccc[nH]1 (stereo not drawn)	.	-7	-3	4	.	i	-1	-15
O=S(=O)(Oc1ccccc1/C=N/n1cnnc1)c1ccccc1	2	-9	2	3	-1	i	7	.
Cc1ccc2ncnc(NCCC(=O)O)c2c1	3	-21	0	-1	5	i	-3	-21
COC(=O)c1cc2c(ccn2-c2ccc(F)cc2)n1Cc1ccc(OC)cc1	-6	0	-1	-4	2	i	18	.
CC(C(=O)NCCc1ccc(F)cc1)N1CCN(Cc2ccccc2)CC1 (stereo not drawn)	-7	-2	-3	-2	14	i	-6	7
Cc1ccc(-c2nc(NC(=O)CSc3nnnn3-c3ccccc3)ns2)cc1	-3	.	4	-6	9	i	-1	-15
O=C(COC(=O)c1ccc(O)cc1)Nc1ccc(OC(F)F)cc1	-8	7	6	2	-11	i	-5	1
C/C(=C\C(=O)OCC(=O)NCc1ccccc1)C(=O)OCC(=O)NCc1ccccc1	5	-121	-2	2	4	i	8	-6
COc1cc(NC(=S)N2CCN(c3ccccn3)CC2)c(OC)cc1Cl	2	-7	-3	-6	2	i	4	.
Cc1ccc2c(c1)C(c1ccc(F)cc1)N(C(=O)c1cc3ccccc3oc1=O)CC(=O)N2 (stereo not drawn)	-8	5	-1	0	-12	i	-6	-1
CSc1ccc(/C=C/C(=O)NC(=O)c2ccccc2O)cc1	4	-72	1	-1	-5	i	6	-24
CCc1ccc(NC(=O)/C(C#N)=C/c2ccncc2)cc1	-7	7	-2	3	1	i	0	-17
Cc1nc2oc3c(NCc4ccccc4)ncnc3c2c2c1COC(C)(C)C2	-4	15	7	-9	-14	i	-5	-8
COc1ccc(N(CC(=O)NCCSc2ccccc2)S(=O)(=O)c2ccccc2)cc1OC	-12	.	-1	0	-4	i	-4	-3
CC(CC(=O)Nc1ccc2c(c1)c(=O)n(C)n2-c1ccc2ccccc2c1)C(F)(F)F (stereo not drawn)	.	-325	6	-1	.	.	.	-2
NC(=O)c1ccc(Oc2ncc(C(F)(F)F)cc2Cl)cc1	-5	8	3	1	0	i	-1	.
COc1ccc(-n2c(C)ccc2-c2ccccc2)cn1	?	8	-32	3	?	i	15	-14
O=C(CSC(=S)N1CCN(c2ccccc2)CC1)Nc1nc(-c2ccccc2)c(-c2ccccc2)o1	-4	-8	4	5	-1	i	1	-14
COCc1cc(=O)[nH]c(-c2csc(C)n2)n1	4	20	2	2	-1	i	-2	-19
Cc1ccc(N(C(=O)c2csnn2)C(C(=O)NC2CCCC2)c2ccncc2)c(C)c1 (stereo not drawn)	-4	24	1	3	0	i	0	-16
COc1ccc(NC(=O)/C(C#N)=C/c2cccnc2)c(OC)c1	-6	5	2	5	3	i	-12	-22
COc1cccc2cc(-c3cc(=O)oc4ccc(O)cc34)oc12	.	-5	-5	-9	.	i	2	-3
Cc1cc(C)nc(Nc2n[nH]c(-c3ccccc3N)n2)n1	6	-25	4	7	-8	i	-15	-40
CC[C@@]1(C(=O)OC)N[C@H](CN(C)C(=O)Nc2ccc(OC)cc2)[C@@H]2C(=O)N(Cc3ccccc3)C(=O)[C@@H]21	.	70*	1	-1	.	.	-4	-13
CCCC1(C2CCCC2)NC(=O)NC1=O (stereo not drawn)	.	5	1	3	.	.	.	-3
Cc1ccnc(NC(=O)C2CCCN(S(=O)(=O)c3cnc[nH]3)C2)c1 (stereo not drawn)	23	25	-4	-1	-3	i	-5	-12
CC(NC(=O)COC(=O)CCc1ccc(S(=O)(=O)N2CCOCC2)cc1)C1CC2CCC1C2 (stereo not drawn)	-8	.	1	-2	7	i	0	.
Cc1cc(Nc2ccc(F)cc2Cl)n2nc(C)nc2n1	-1	-27	2	5	8	i	-2	-9
Cc1cc(C)n(-c2ccc(C(=O)OCC(=O)Nc3ccc(S(=O)(=O)N4CCOCC4)cc3)cc2)n1	-4	-3	5	10	5	i	-5	0
O=C(Nc1ccc(N2CCOCC2)c(S(=O)(=O)Nc2ccccc2Cl)c1)c1ccc(=O)[nH]n1	.	22	0	-3	.	.	.	-4
CN(C(N)=S)c1ccccc1	-9	.	-2	1	4	i	11	-25
COc1ccc(C(C(=O)NC(C)(C)C)N(C(=O)CCC(=O)Nc2cc(C)on2)c2cccc(F)c2)cc1 (stereo not drawn)	18	3	-3	-1	-8	i	0	12
CC(C)(C)OC(=O)[C@H](Cc1ccccc1)NC(=O)c1nc[nH]c1C(=O)NC1CCNCC1	.	21	2	5	.	i	-20	1
CN(C(=S)Oc1ccc(C(=O)Nc2ccccc2)cc1)c1ccccc1	2	-11	-6	-16	-17	i	10	-9
CC(=O)Oc1ccc(C(=O)NCCc2ccccc2)cc1	0	3	-4	-3	-19	i	-9	-42
COc1cc(C(=O)NC(=S)Nc2ccc3oc(=O)ccc3c2)cc(OC)c1OC	-14	.	-5	-7	-11	i	4	-28
N=c1c(S(=O)(=O)c2ccccc2)cc2c(=O)n3ccccc3nc2n1Cc1cccnc1	.	21	7	-7	.	i	-3	-17
